Assay outcomes as filed in PubChem.
ClpP mod – qHTS Assay for Activators of ClpP; Potency, µM (highest dose often 57.5 µM), for the others: top-dose activity change, negative = active; 340,000 tested, 1.9% active; purified B. subtilis ClpP, FRET peptide cleavage, 20 min; active = well fitted falling curve with a large enough effect; inconclusive = small, poorly fitted or top-dose-only effect; inactive = no such curve, though single readings can be large or run the other way; note: potency is the fitted concentration of half-maximal effect; the source files actives as falling curves though it sought activators and does not explain the sign; nearly all actives have a fitted effect of over 65% in size; many hits overshoot -100%
Target sequence (P80244 whole entry, looked up): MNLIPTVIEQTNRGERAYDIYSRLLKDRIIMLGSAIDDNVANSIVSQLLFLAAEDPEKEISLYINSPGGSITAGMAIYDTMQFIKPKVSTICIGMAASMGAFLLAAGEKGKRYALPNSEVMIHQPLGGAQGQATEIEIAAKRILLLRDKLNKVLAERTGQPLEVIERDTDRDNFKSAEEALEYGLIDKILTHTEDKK
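FRET quenching reversal measured ClpP activation: 10 microg/mL B. subtilis ClpP at pH 8 with the FRET-FV decapeptide, read at 430 nm after 320 nm excitation. The 20-min minus 0-min signal was scaled between DMSO/no-enzyme wells and ADEP (5.8 microM final).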
TRPV1 PAM – potentiators of human vanilloid receptor 1 (TRPV1); Q8NER1; TRPV1-expressing cells, Fluo-8 calcium influx, capsaicin EC20 potentiation; host cell line not named in the record; control for the full effect not named in the record; potentiation, % at 8.33 µM; 320,000 tested, 0.02% active; active means potentiation above 80%; inconclusive means 30% to 80%; inactive means below 30%; note: 0% is about no effect
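Fluo-8 calcium influx in TRPV1-expressing cells, kinetic read (ex 480/em 520 nm). Compound added and read 3 min for agonist activity, followed by capsaicin at EC20 final and 2 min further read for enhancement.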
gsp antag – antagonists of gsp mutant (McCune-Albright syndrome). 340,000 tested, 0.4% active. Potency, µM (top dose mostly 76.9 µM), inactives show at the top dose activity change, negative = inhibition, most hits filed as inhibitors. gsp-mutant cells, cAMP HTRF, 30 min; control for the full effect not named in the record. AID 624288; active = falling curve of any shape with a large fitted effect; inconclusive = falling curve, mostly with a smaller effect; inactive = flat or rising curve; cell line not stated here;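 note: intracellular cAMP measured with PDE inhibitor Ro 20-1724 present during compound exposure; potency is the fitted concentration of half-maximal effect; % is set by controls: 0 for no effect and ±100 for the full control effect; nearly all actives have a fitted effect of over 65% in size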
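HTRF cAMP measurement after 30 min RT detection following 30 min, 37C compound treatment alongside […] (added as 300 uM solution) in G418-selected cells seeded at 2000/well and grown 16–24 h.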
Sfp inh – Sfp phosphopantetheinyl transferase inhibition | Biochemical Sfp PPTase activity, qHTS | Potency, µM, for inactives: max response, negative = inhibition, hits mostly inhibitors | 310,000 tested, 3.5% active; active = well fitted inhibition curve with a large enough effect; inconclusive = small, poorly fitted or top-dose-only effect, or another doubt; inactive = no such curve, though single readings can be large or run the other way;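 note: the enzyme is Sfp with the accession as filed and its product quenches rhodamine fluorescence; potency is the fitted concentration of half-maximal effect; 0% = enzyme reaction without inhibitor and -100% = no enzyme wells; top concentration of the series not given in the record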
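Fluorescence-quenching assay: 15 nM Sfp-PPTase preincubated 15 min at room temperature with compound, then 5 uM rhodamine-CoA and 12.5 uM BHQ-2-labelled YbbR peptide added. Fluorescence (ex 525/em 598 nm) read at start and after 30 min; difference gives rate.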
TRPML1 blocker – blocks the human TRPML1 channel. Q9GZU1. activity change, negative = inhibition, % (no concentration beside the values). 390,000 tested, 0.02% active. TRPML1-inducible cells, Ca2+ dye fluorescence, FDSS; active compounds read low; inhibition of EC80 agonist-evoked calcium signal; in the data active means activity change below about -50%; inconclusive means about -30% to -50%; inactive means above about -30%;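 note: stimulus is agonist 54-4 at its EC80 concentration; % is set by controls: 0 for no effect and ±100 for the full control effect; compound concentration not given in the record; the text of the record puts the active cut at -80%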
Target sequence (Q9GZU1 whole entry, looked up): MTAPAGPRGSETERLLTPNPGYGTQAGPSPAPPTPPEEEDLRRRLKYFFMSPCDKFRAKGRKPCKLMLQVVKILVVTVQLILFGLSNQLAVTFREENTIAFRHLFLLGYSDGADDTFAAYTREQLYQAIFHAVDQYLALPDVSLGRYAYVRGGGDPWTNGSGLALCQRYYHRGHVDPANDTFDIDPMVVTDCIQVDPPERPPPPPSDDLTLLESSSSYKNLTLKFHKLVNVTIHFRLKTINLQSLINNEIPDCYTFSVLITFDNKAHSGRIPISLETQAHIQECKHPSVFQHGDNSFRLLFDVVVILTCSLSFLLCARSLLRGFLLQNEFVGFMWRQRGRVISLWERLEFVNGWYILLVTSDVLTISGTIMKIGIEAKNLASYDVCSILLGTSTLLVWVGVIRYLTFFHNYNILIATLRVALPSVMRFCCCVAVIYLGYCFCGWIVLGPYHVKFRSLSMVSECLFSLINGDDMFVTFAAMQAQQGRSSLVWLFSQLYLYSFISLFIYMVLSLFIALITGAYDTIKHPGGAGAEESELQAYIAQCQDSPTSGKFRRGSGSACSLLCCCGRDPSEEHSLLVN
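Calcium fluorescence in TRPML1-DL cells induced overnight with Tet: a 110 s read after compound pin addition, then a 110 s antagonist read after challenge with 54-4 at 4 uM final (EC80).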
Menin MLL FP FL – menin-MLL binding inhibition, fluorescein peptide. Fluorescence polarization, fluorescein-MLL peptide displacement from menin. FP activity change, % at 61.4 µM. 290,000 tested, under 10 active. AID 1766; inconclusive = falling polarisation curve, or a change in total fluorescence; inactive = total fluorescence flat and polarisation flat or rising; no compound was filed as active; the % refers to the polarisation; negative = inhibition;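 note: % of control where 0% means no effect; inhibitors lower the polarisation; unlabelled MLL peptide was the positive control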
gsp agonist – activates gsp, the McCune-Albright syndrome mutation; gsp mutant cells, cAMP HTRF, 30 min; control for the full effect not named in the record; Potency, µM (series often up to 76.9 µM), inactives show at the highest dose activation (cAMP increase), actives largely listed as activators; 340,000 tested, 0.13% active; AID 624287; active = well fitted activation curve with a large enough effect; inconclusive = small, poorly fitted or top-dose-only effect, or another doubt; inactive = no such curve, though single readings can be large or run the other way; cell line not stated here;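 note: phosphodiesterase inhibitor Ro 20-1724 added with compounds to block cAMP breakdown; potency is the fitted concentration of half-maximal effect; nearly all actives have a fitted effect of over 60% in size; about a fifth of the inactives were tested at one dose only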
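Cells in DMEM/10% FBS with G418 were pretreated with compounds in DMSO plus […] (300 uM stock) for 30 min at 37C. cAMP was measured by HTRF (cAMP-d2 plus anti-cAMP antibody-K) after 30 min at room temperature.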
The depositor's hits bear a star; ? = inconclusive; / = no result given; & = joins results of further samples; [ ] = dose if it differs, or a comment.

SMILES	ClpP mod	TRPV1 PAM	gsp antag	Sfp inh	TRPML1 blocker	Menin MLL FP FL	gsp agonist
Cc1ccc(C(C)C)c(OCCOCCN2CCNCC2)c1	-0.1%	/	13%	/	16	/	-36%[inhibitor]
Cc1ccccc1C(=O)NCCCNC(=O)c1ccccc1C	/	/	10%	/	6	/	-9%[15.4 µM]
Cc1ccc(-c2cc(C(=O)Nc3c(C)n(C)n(-c4ccccc4)c3=O)[nH]n2)c(O)c1C	/	2	-2%	19%	7	-1.5	1%[15.4 µM]
COc1ccccc1C(=O)C1CCCN(C(=O)c2ccc3c(c2)OCCO3)C1 (stereo not given)	/	6	-7%	19%	-10	-0.2	9%[15.4 µM]
Cc1nc(C(=O)Nc2ccccc2)sc1C1(C)CC(c2cccnc2)=NO1 (stereo not given)	0.7%	28	-9%	-2%	1	1.0	-28%
Nc1cccc(C(=O)NCCNC(=O)c2cccc(N)c2)c1	-9.9%	-14	-5%	3%	-2	1.2	?
COCCN(C(=O)CC1C(=O)NCCN1Cc1ccc(-c2ccccc2)cc1)C(C)C (stereo not given)	-11%	-1	6%	-4%	-4	-7.1	0%
CC(=O)Nc1ccc(NC(=O)C2CCCN(S(=O)(=O)c3ccc(-n4cnnn4)cc3)C2)cc1 (stereo not given)	/	-7	3%	20%	14	3.8	17%[15.4 µM]
C=C(C)Cn1c(N2CCN(c3ccc(OC)cc3)CC2)nc2c1c(=O)n(C)c(=O)n2C	-8.0%	2	-15%	-11%	1	1.8	3%[15.4 µM]
O=C(c1ccoc1)N1CCC2(CC1)Oc1ccc(Cl)cc1C(=O)C21CC(c2ccccc2)=NO1 (stereo not given)	-2.8%	?	-11%	-9%	8	2.1	28%
O=C(Nn1cnnc1)c1ccccc1F	/	-3	7%	2%	32	-4.6	-54%[inhibitor]
CSCCCNC(=O)c1ccccc1OC1CCN(S(C)(=O)=O)CC1	/	-2	-34%	-7%	-4	-0.2	11%[15.4 µM]
CCOC(=O)C(CC)(CC)C(=O)/C=C/c1cccc(Br)c1	-1.0%	/	-1%	/	-6	/	-62%[inhibitor]
CCN(c1ccccc1)S(=O)(=O)c1ccc(Cl)c(NC(=O)CSc2nncs2)c1	0.3%	9	-13%	-9%	-18	?	29%[15.4 µM]
Cc1ccc(C2N(c3ccc(F)cc3)C(=O)C3CCCN32)cc1 (stereo not given)	2.8%	/	10%	-3%	8	6.1	-16%
COc1cc(C(=O)NNC(=O)C2CC2)cc(OC)c1OC	0.9%	-16	-4%	-2%	6	-4.6	-2%
O=C(O)c1cc(-c2ccc(Cl)cc2)n(-c2ccccc2)n1	/	8	-14%	18%	15	-1.9	-13%
CN1C(=O)NC(NC(=O)C2CCCCC2)(C(F)(F)F)C1=O (stereo not given)	-0.2%	20	8%	12%	-3	0.4	2%
Fc1ccccc1N1CCN(CCCNc2ccc3nncn3n2)CC1	-1.4%	-2	9%	10%	-2	-3.4	27%
O=c1oc2ccccc2cc1-c1nc(-c2cccs2)cs1	-3.9%	2	-3%	14%	4	?	?
Cc1c([N+](=O)[O-])c([N+](=O)[O-])nn1CC(=O)NCc1cccnc1	/	-3	6%	-8%	-7	-1.1	-1%[15.4 µM]
O=C(CSc1nnc(-c2c[nH]c3ccccc23)o1)N1CCCCC1	-5.9%	-2	-12%	0%	83	-0.9	-14%
CCC(=O)Nc1cccc(NC(C)=O)c1	/	2	/	9%	/	1.4	/
CCN(C[C@H]1N[C@@](C)(C(=O)OC)[C@H]2C(=O)N(Cc3ccccc3)C(=O)[C@@H]12)S(=O)(=O)c1ccc(OC)cc1	3.5%	/	0%	/	10	/	/
O=C(Nc1cccc(C(F)(F)F)c1)c1cccc(NS(=O)(=O)c2ccc(O)c(C(=O)O)c2)c1	-22%	-6	4%	9%	4	-2.0	5%[15.4 µM]
CCOC(=O)N1CCC(N(CCN(C)C)C(=S)Nc2ccc(F)c(Cl)c2)CC1	-3.2%	6	-12%	-15%	0	3.7	24%
Cc1sc2nc(COC(=O)c3cccc(S(=O)(=O)N(C)c4ccccc4)c3)[nH]c(=O)c2c1C	/	9	-1%	5%	-4	?	1%[15.4 µM]
CC(C)(C)C(=O)NC1CCN(S(=O)(=O)c2ccc(C(F)(F)F)cc2)CC1	0.1%	?	-5%	6%	9	-8.8	1%
COc1ccc(N2CCN(C(=O)c3cc4c(s3)-c3ccccc3OC4)CC2)cc1	12%&3.0%	-8	5%	20%	4&-16	-0.4	?
O=C(Cc1ccccc1)NNC(=O)C1CCCC1	0.1%	4	5%	21%	-14	2.5	18%
O=C(Nc1ccc(N2CCCCC2)c(Cl)c1)c1ccc(N2CCOCC2)c([N+](=O)[O-])c1	-8.0%	-4	-3%	6%	-5	3.4	4%
CC1CCCC(NC(=O)CN2C(=O)NC(C)(c3ccccc3)C2=O)C1C (stereo not given)	0.5%	-12	9%	/	-9	/	18%
CCCCC(=O)Nc1ccc(C(=O)N2CCC(C(=O)OCC)CC2)cc1	0.9%	-1	-9%	-1%	2	5.3	0%
Cc1cc(Cl)ccc1NC(=O)CN1CCC(C(O)(c2ccccc2)c2ccccc2)CC1	-1.1%	-2	2%	17%	-2	0.0	8%
CCOc1ccc(CN2CCCC(CO)(Cc3ccccc3F)C2)cc1 (stereo not given)	-1.9%	14	-10%	2%	13	7.6	-20%
CC(=O)c1cnc(Nc2nc(C)c3ccc(C)cc3n2)nc1C	-2.3%	8	26%	14%	-1	9.2	0%
COc1ccc(N(CC(=O)NCCOc2ccccc2)S(=O)(=O)c2ccc(C)cc2)cc1	/	1	-14%	-29%	10	/	14%
O=C(CCNS(=O)(=O)c1ccc(Br)s1)NCc1ccccc1	/	1	-4%	2%	-11	-1.4	18%
Clc1cnc(Nc2cccnc2)c(Cl)c1	/	-3	4%	-2%	-11	-2.2	-11%[15.4 µM]
CC(=O)CCc1c(C)[nH]c2ccc(NC(C)=O)cc2c1=O	25µM*	12	3%	8%	6	-0.4	?
Cc1ncc(S(=O)(=O)C(C)(C)C)c(N)n1	-4.1%	2	-14%	-4%	-8	-0.6	-8%[15.4 µM]
CCCCc1nc2cc(C(=O)NCc3cc(C)n(C)n3)ccc2o1	-0.5%	10	2%	14%	-13	-0.1	2%
COc1cc(OC)cc(C(=O)Nc2ccc(S(=O)(=O)Nc3cc(C)nc(C)n3)cc2)c1	-0.4%	-5	/	-6%	4	3.2	/
CN(c1nc2ccccc2nc1Cl)S(=O)(=O)c1ccccc1	/	17	-12%	10%	8	-1.3	-13%[15.4 µM]
O=C(CSc1nc(-c2cccs2)nc2ccccc12)NC1CCS(=O)(=O)C1 (stereo not given)	?	-6	-16%	/	0	/	?
COc1cccc(-n2c(C)c3c(OC)cccc(=O)c3c2C)c1	/	1	?	50µM*	-5	?	-1%[15.4 µM]
CCN(CC)C(=O)Oc1ccccc1NC(C)=O	-0.3%	1	0%	20%	11	0.5	?
OCCN(CCO)CC(O)COc1ccc(Br)cc1 (stereo not given)	0.4%&-1.9%	10&4	2%&6%	-4%&17%	-15&0	-1.1&0.9	1%
COc1ccc(-c2nc(CS(=O)(=O)CC(=O)NCc3ccccc3Br)c(C)o2)cc1	-3.5%&-3.8%	-10	-26%	-19%	-2&-5	-0.5	0%
O=C(c1ccc(Cl)nc1)c1cccs1	-13%	3	6%	-1%	11	1.2	-3%[15.4 µM]
Cc1ccc(S(=O)(=O)Cn2cnnn2)cc1	-0.6%	2	13%	21%	10	1.5	-72%[inhibitor]
CCc1ccc(-c2cc(C(=O)Nc3c(C)n(C)n(-c4ccccc4)c3=O)c3ccccc3n2)s1	-19%	25	-6%	-14%	-5	2.3	0%
COc1ccc(C(=O)C2CCCN(C(=O)c3noc4c3CCCC4)C2)c(C)c1 (stereo not given)	/	-18	-29%	4%	22	2.9	-1%
CCOC(=O)N1CCc2c(sc(NC(=O)CN3CCOCC3)c2C#N)C1	/	-3	-6%	-6%	14	-2.9	24%[15.4 µM]
CCN(CC)P(=O)(Nc1ccccc1Br)c1ccc(N(C)C)cc1NC(=O)c1ccco1 (stereo not given)	/	-2	-19%	-26%	50	6.0	-36%[inhibitor]
CCCCN(CC)CCNS(=O)(=O)c1ccc2c(c1)oc(=O)n2C	-0.7%	3	6%	28%	-16	1.6	27%
Nc1cccc(C(=O)Nc2ccc(N)cc2Cl)c1	-1.0%	3	8%	-5%	7	-0.9	-3%
Cc1cc(C)cc(S(=O)(=O)Cc2noc(C(=O)NCc3ccccc3)c2C(=O)NCc2ccccc2)c1	-0.7%	/	-13%	/	-2	/	/
Cc1ccn2c(Cc3ccccc3)c(-c3ccc(Br)cc3)nc2c1	?	/	/	/	63	/	1%
O=C(c1ccco1)N1CCN(C(=O)c2ccc(COc3ccc(Cl)cc3Cl)o2)CC1	-3.5%	/	-17%	/	-2	/	3%

Other records
SMILES	ClpP mod	TRPV1 PAM	gsp antag	Sfp inh	TRPML1 blocker	Menin MLL FP FL	gsp agonist
CC(C)(C)NC(=O)C(c1ccccn1)N(C(=O)c1csnn1)C1CCCC1 (stereo not given)	/	-2	-12%	12%	15	2.4	30%[15.4 µM]
CC(C)(C)c1cc(CN2CCOCC2)c(C(=O)O)o1	-0.6%	-1	10%	4%	30	0.8	-5%
CCC(C)NS(=O)(=O)c1ccc(NC(=O)C(Sc2ccccc2)c2ccccc2)cc1 (stereo not given)	0.7%	3	-14%	19%	11	3.0	11%[15.4 µM]
Cc1ccccc1C(=O)/C=C1/SCC(=O)N1C	1.5%	-4	-5%	13%	-16	14	-12%
CC1(c2ccccc2)NC(=O)N(CC(=O)Nc2ccc(Cl)c(S(=O)(=O)N3CCCCC3)c2)C1=O (stereo not given)	0.3%	17	-22%	11%	-10	/	4%
S=C(NCCc1ccccc1)Nc1ccc(Cl)cc1	2.0%	-15	-9%	2%	3	6.8	-20%
CCOc1ccc(OCCC(=O)NNC(=O)c2nn(C)c(=O)c3ccccc23)cc1	-15%	9	2%	0%	-9	/	-41%[inhibitor]
CCNC(=O)Cc1c(OC)ccc2cc(Br)ccc12	-2.6%	9	9%	8%	-7	0.3	?
